PKD1 inh: inhibitors of human PKD1 kinase, biochemical, fluorescence polarization | Serine/threonine-protein kinase D1 (Homo sapiens), Q15139 | PKD1 kinase fluorescence polarization assay | inhibition, %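 (about 10 µM by stock and volumes)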 | 200,000 compounds, 0.056% hits | AID 797, 2007;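 active = inhibition of 50% or more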;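 also: controls were vehicle for no effect and a reference inhibitor for full effect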
GALR2 agonist: GALR2 receptor agonists, primary screen, cell-based; AID 803, 2007; 140,000 compounds, 0.48% hits; Galanin receptor type 2 (Homo sapiens), O43603; activation, %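 (tested at 5 µM)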; GALR2-expressing cells, agonist activation read-out;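 active = above mean plus 3 SD of all compounds, about 5% in these data, not always enough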;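 also: 0% = vehicle buffer wells and 100% = reference agonist at full effect; tested in CHO reporter cells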
Target sequence (O43603 whole entry, looked up): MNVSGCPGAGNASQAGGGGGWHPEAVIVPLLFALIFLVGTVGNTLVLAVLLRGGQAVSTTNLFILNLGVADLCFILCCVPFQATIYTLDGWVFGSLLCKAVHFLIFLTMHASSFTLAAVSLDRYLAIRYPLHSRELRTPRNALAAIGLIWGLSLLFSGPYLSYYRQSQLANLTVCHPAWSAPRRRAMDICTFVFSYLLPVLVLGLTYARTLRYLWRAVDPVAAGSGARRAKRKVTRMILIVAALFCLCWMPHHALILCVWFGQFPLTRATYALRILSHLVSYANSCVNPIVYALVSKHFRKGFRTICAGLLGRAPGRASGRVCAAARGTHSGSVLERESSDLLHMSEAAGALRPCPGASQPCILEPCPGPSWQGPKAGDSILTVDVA
RGS16-Gao HTS: modulators of RGS16 binding to Galphao, primary screen, biochemical, human proteins, multiplexed bead flow cytometry; Regulator of G-protein signaling 16 (Homo sapiens) + Guanine nucleotide-binding protein …; bead-based flow cytometry RGS16-Galphao binding, fluorescence; actives lie on both sides; 220,000 compounds, 0.38% hits; binding response (% of control), % at 10 µM;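 active = below 25% or above 175%, edge rows of some plates excepted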;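 also: Galphao activated by GDP with aluminum fluoride before binding; 100% = wells without compound and 0% = beads without RGS; some results beyond the cut were filed as inactive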
Target sequence (O15492 whole entry, looked up): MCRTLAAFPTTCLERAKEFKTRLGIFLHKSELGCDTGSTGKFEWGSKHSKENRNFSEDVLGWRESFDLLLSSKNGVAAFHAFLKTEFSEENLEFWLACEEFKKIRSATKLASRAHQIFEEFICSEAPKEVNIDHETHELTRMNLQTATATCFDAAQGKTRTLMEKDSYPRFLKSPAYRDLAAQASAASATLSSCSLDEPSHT
Target sequence (P09471 whole entry, looked up): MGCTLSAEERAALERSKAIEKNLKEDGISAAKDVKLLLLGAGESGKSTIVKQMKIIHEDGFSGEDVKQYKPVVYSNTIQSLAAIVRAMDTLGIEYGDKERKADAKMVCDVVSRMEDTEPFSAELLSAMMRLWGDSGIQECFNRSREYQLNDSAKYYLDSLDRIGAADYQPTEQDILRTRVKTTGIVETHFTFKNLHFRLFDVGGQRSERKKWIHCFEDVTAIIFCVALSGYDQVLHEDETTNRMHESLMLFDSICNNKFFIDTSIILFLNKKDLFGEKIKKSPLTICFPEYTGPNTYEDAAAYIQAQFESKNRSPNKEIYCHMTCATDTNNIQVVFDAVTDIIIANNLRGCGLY
Insulin prom inh: inhibitors of insulin promoter-driven GFP, primary screen, imaging, TRM-6 cells (human fetal islet line), eGFP reporter, cell count; reporter expression induced with tamoxifen; inhibition, % at 2 µM; 130,000 compounds, 0.9% hits;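 active = inhibition above the mean plus 3 SD, with well images judged a real hit on visual review, cut at about 60% in these data, passing the limit was not always enough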
HSV augment: enhancers of HSV replication in host cells, fold increase, host cell viability; 220,000 compounds, 0.005% hits; AID 1956, 2009; maximum fold increase; HSV replication augmentation in cells;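 active = peak rise of 1.5-fold or more in the series; tested in PC3 cells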;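 also: first round at 10 µM; read as green reporter fluorescence; hits show the peak of a series up to 25 µM; 1 = signal of infected wells without compound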
Insulin prom inh cell count: second read-out of Insulin prom inh, no call of its own (marks repeat the call); normalized cell count, %; measured here: cell count, toxicity; reference of the scale not given here;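 cells exposed to compound for 48 h; stained nuclei by imaging scaled within each plate; lower means fewer cells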
HSV augment primary fold: recorded beside HSV augment, whose call it bears; fold increase; compound at 10 µM; measured here: primary screen fold increase 10 uM; tested in PC3 cells;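 GFP signal in the first replicate; 1 = infected wells without compound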
Starred values were filed as active, the others as inactive; i = inactive; / = not tested or not shown.

SMILES,PKD1 inh,GALR2 agonist,RGS16-Gao HTS,Insulin prom inh,Insulin prom inh cell count,HSV augment,HSV augment primary fold
CC(=O)NCCC(Cc1ccccc1)c1ccco1 (configuration not stated),-6.7,-0.3,97.7,-368.8,33.9,i,0.93
O=C(CCc1cnccn1)NC1CCCc2c1cnn2-c1ccc(F)cc1F (configuration not stated),4.5,/,99.4,/,/,i,0.95
COc1ccc(CCNC(=O)C(Sc2ccccn2)c2ccccc2)cc1OC (configuration not stated),/,/,100.3,/,/,i,0.92
Cc1ccccc1Nc1nc(NCc2ccco2)c2ccccc2n1,-1.0,/,104.2,/,/,i,0.81
CCOc1ccc(C(=O)Nc2ccncc2)cc1,-7.3,-2.0,99.6,/,/,i,0.89
Cc1ccc(-n2nnnc2SCc2nnc(-c3ccccc3Br)o2)c(C)c1,-2.6,-1.3,90.0,-141.9,70.1,i,1.25
CC(=O)c1cc2c(cc1NC(=O)CN1CCN(c3ccc(F)cc3)CC1)OCO2,-9.5,-3.0,109.6,0.0,126.7,i,1.05
COc1ccc(-c2[nH]ncc2CN2C[C@@H]3CCC[C@H]2C3)c(F)c1,1.3,/,106.4,/,/,i,0.83
Cc1cccc(OCc2nc(C#N)c(N3CCCC3)o2)c1,/,/,100.7,/,/,i,0.98
CCOc1cc(CNc2ccc(N3CCCC3)cc2)cc(Cl)c1OC,-8.8,0.0,89.7,-25.0,81.0,i,0.61
COc1c(C)cc(C(=O)C2CCCN(C(=O)/C=C/c3ccccn3)C2)cc1C (configuration not stated),8.2,/,69.0,/,/,i,0.82
N#C/C(=C\c1cccc([N+](=O)[O-])c1)C(=O)Nc1cccnc1,0.8,/,103.7,/,/,i,1.3
Cn1cc(CN2CCN(Cc3cccnc3)CC2)c(-c2ccc3c(c2)OCCO3)n1,-3.7,/,103.6,/,/,i,0.93
CCOC(=O)N/N=C\c1cccc(OC)c1,-7.1,/,104.9,/,/,i,0.87
O=C(NCCO)c1cccc(Cl)c1,4.5,-4.2,104.2,/,/,i,0.98
Cc1nn(-c2ccccc2)c(Cl)c1/C=N/NC(=O)CCNc1n[nH]c(=O)[nH]c1=O,/,/,101.1,/,/,i,1
COc1ccc(NC(=O)COC(=O)[C@@H]2CCCN2C(=O)c2cccs2)cc1,-6.6,-2.0,66.5,-8.1,135.8,i,0.7
COC(=O)c1ccc(OC(=O)CCN2C(=O)C3C4c5ccccc5C(c5ccccc54)C3C2=O)cc1 (configuration not stated),1.6,-0.8,100.9,/,/,i,1.08
COc1ccc(C2SC[C@@H](C(=O)O)N2C(C)=O)cc1 (some centres not stated),-8.4,1.4,108.0,-42.1,115.7,i,0.92
COCCCNc1nc2ccccc2nc1NS(=O)(=O)c1ccccc1,5.1,/,100.6,15.0,89.1,i,0.94

The last 3 entries of the section above lead into the next.
SMILES,PKD1 inh,GALR2 agonist,RGS16-Gao HTS,Insulin prom inh,Insulin prom inh cell count,HSV augment,HSV augment primary fold
COC(=O)c1ccc(OC(=O)CCN2C(=O)C3C4c5ccccc5C(c5ccccc54)C3C2=O)cc1 (configuration not stated),1.6,-0.8,100.9,/,/,i,1.08
COc1ccc(C2SC[C@@H](C(=O)O)N2C(C)=O)cc1 (some centres not stated),-8.4,1.4,108.0,-42.1,115.7,i,0.92
COCCCNc1nc2ccccc2nc1NS(=O)(=O)c1ccccc1,5.1,/,100.6,15.0,89.1,i,0.94
C=CCNC(=O)CC12CC3CC(C1)CC(CC(=O)NCC=C)(C3)C2,-7.3,/,88.7,/,/,i,1
CCc1nnc(NC(=O)CC(CN(C)S(=O)(=O)c2ccccc2)c2ccccc2)s1 (configuration not stated),3.7,-0.6,113.1,/,/,i,0.91
COCCOc1cc(NC(=O)c2ccccc2)c(Cl)cc1Cl,-9.9,/,79.0,64.3,27.7,/,/
CCOC(=O)c1c(C2CC2)csc1NC(=O)COC(=O)c1cc(OC)c(OC)cc1[N+](=O)[O-],-19.2,-2.2,101.0,48.6,70.9,i,0.82
O=C(COC(=O)CCc1nc2ccccc2s1)Nc1ccc(S(=O)(=O)N2CCOCC2)cc1,/,/,97.1,/,/,i,1.02
CCOc1cc(/C=N/NC(=O)c2ccc(=O)n(C)c2)ccc1O,-7.2,/,96.8,/,/,i,1.1
C#Cc1ccc([C@H]2C=C(C(=O)NC3CC3)O[C@@H](OCC)[C@@H]2CCCO)cc1,-10.3,/,100.5,/,/,i,1.09
O=S(=O)(N/N=C\c1ccc(-c2ccccc2Cl)o1)c1ccccc1,-8.8,-1.8,108.1,-62.8,112.7,i,0.98
Cc1ccc(NC(=O)C2CCN(S(=O)(=O)c3c(C)[nH]c(=O)[nH]c3=O)CC2)cc1,-2.7,-1.2,108.2,-6.8,67.2,i,0.89
CC1(C)Cc2c(sc3c2c(N)nc(=S)n3Cc2ccccc2)CO1,-5.6,/,104.0,-7.1,121.3,i,0.89
COC(=O)c1cc(Br)c(=O)n(CCN(C(C)C)C(C)C)c1,-13.2,0.0,102.2,/,/,i,0.86
Cc1cc(Nc2ccccc2C(=O)O)n(-c2ccc([N+](=O)[O-])cc2)n1,/,/,100.3,/,/,i,0.62
COc1ccccc1Nc1nnc(SCc2cc(=O)n3ccsc3n2)s1,-3.7,/,89.9,/,/,i,0.79
CC(=O)Nc1ccc2oc(-c3ccccc3Br)nc2c1,-6.3,-1.9,119.5,27.3,92.6,/,/
O=C(Nc1ccc([N+](=O)[O-])cn1)C1CC1,-7.2,-1.7,120.1,53.9,84.8,i,0.85
C/C(=N\OC(=O)Nc1ccccc1)c1cnn(-c2cc(C(F)(F)F)cc(C)n2)c1C,/,/,95.9,/,/,i,0.82
CCOC(=O)c1ccc(NC(=O)CSc2nc(NC(=O)c3ccccc3)c3c(C)c(C)oc3n2)cc1,-12.5,-0.7,101.5,-43.9,54.7,i,0.6
Cc1ccccc1Cn1ccc(-c2ccc3c(c2)OCO3)n1,1.4,-1.0,75.4,-32.3,110.7,i,1
O=C(Nc1ccc2c(c1)OCO2)c1n[nH]c(=O)c2ccccc12,/,/,94.7,/,/,i,0.92
Cc1ccccc1N(CC(=O)N/N=C/c1cc(Br)c(C)o1)S(C)(=O)=O,8.3,-2.3,84.9,30.8,81.9,/,/

The results go on:
SMILES,PKD1 inh,GALR2 agonist,RGS16-Gao HTS,Insulin prom inh,Insulin prom inh cell count,HSV augment,HSV augment primary fold
CC(C)c1ccc(Nc2nnns2)cc1,/,/,97.4,/,/,i,0.92
Cc1ccsc1S(=O)(=O)N1CCCC(CCC(=O)NCc2ccccc2F)C1 (configuration not stated),-10.6,/,98.2,/,/,i,0.9
CCC(C)(C)NC(=O)Cc1ccc(OC)c(OC)c1,-4.3,-1.4,94.5,-7.7,105.7,i,0.79
O=C(Nc1nccs1)c1ccc(COc2ccc(Cl)cc2)o1,-1.8,-1.3,99.0,-356.2,69.4,i,1.03
C#CCOCCOCCOCCNc1nc(N2CCN(C(=O)[C@H]([C@@H](C)CC)n3cc([C@@H](N)CO)nn3)CC2)nc(N2CCN(C(=O)[C@H]([C@@H](C)CC)n3cc([C@@H](N)CC(C)C)nn3)CC2)n1,3.7,/,97.1,/,/,i,1.08
NC(=O)C1CCN(C(=O)CSc2ncccn2)CC1,-2.6,/,102.0,/,/,i,0.92
NC(=O)CC(NC(=O)c1ccccc1)c1ccc(NC2CCCC2)c([N+](=O)[O-])c1 (configuration not stated),/,/,101.5,/,/,i,0.72
Cc1ccc(C2CCN(C(=O)Nc3ccccc3)C2)cc1 (configuration not stated),-2.7,-3.2,102.2,/,/,i,0.873
COc1cc(/C=C/C(=O)OCC(=O)Nc2ccccc2Sc2ccc(Cl)cc2)ccc1O,-3.5,0.3,96.6,7.1,102.2,i,0.96
Cc1ccc2[nH]c(=O)c(CC=C(Cl)Cl)c(C)c2c1,-0.6,-1.3,106.0,-37.5,100.2,i,0.8
Cc1cc(=O)oc(C)c1C(=O)Nc1ccccc1F,/,/,101.6,/,/,i,0.98
COc1ccc(NC(=O)CN2CCN(C3c4ccccc4-c4ccccc43)CC2)cc1,0.9,-0.2,105.4,34.3,80.0,i,0.78
O=c1[nH]c2ccccc2n2cnnc12,-6.1,/,103.1,/,/,i,1
O=C(CNC(=O)c1ccco1)Nc1cc(Cl)ccc1N1CCOCC1,2.6,-0.5,103.0,-18.2,54.2,i,0.82
O=C(CSc1ncnc2sc3c(c12)CCCCC3)NCc1ccco1,-4.6,-1.6,98.1,-6.9,157.7,i,0.88
O=C(c1ccccc1SCc1ccccc1)N1CCCCCC1,5.0,/,94.8,/,/,i,1.1
O=C(CSc1ncnc2c1cnn2-c1ccccc1)Nc1ccccc1,1.2,-2.5,93.5,-42.9,100.0,i,0.95
CCOC(=O)C1(CC2CC2)CCN(Cc2ccc(C(=O)OC)cc2)CC1,-6.6,/,95.0,/,/,i,0.93
Cc1ccc2cc(/C=N/NC(=O)c3ccccc3[N+](=O)[O-])c(Cl)nc2c1,-2.3,/,102.7,53.3,87.9,i,1.03
CC(C)NC(=O)C(=O)NNC(=O)C12CC3CC(CC(C3)C1)C2,0.1,-1.2,72.5,/,/,i,0.93

Other entries
SMILES,PKD1 inh,GALR2 agonist,RGS16-Gao HTS,Insulin prom inh,Insulin prom inh cell count,HSV augment,HSV augment primary fold
COc1cccc(OCCOCC(O)CN2CCN(Cc3ccc(Cl)cc3)CC2)c1 (configuration not stated),-4.5,-1.2,99.4,18.2,126.0,i,0.9
O=C(c1cnc2n(c1=O)CCS2)N1CCN(C(c2ccccc2)c2ccc(Cl)cc2)CC1 (configuration not stated),-15.1,0.5,101.7,/,/,i,0.89
COC(=O)c1ccc(NC(=O)CN2CCCC2)cc1,-9.3,-2.2,120.3,-5.6,153.6,i,0.91
CCn1c(Cc2ccccc2)nnc1SCC(=O)NC1CC1,-9.5,-4.0,101.0,13.3,99.4,i,0.9
COC(=O)CCC(=O)NC(=S)Nc1ccccc1F,-4.2,/,98.4,/,/,i,1.06
O=S(=O)([N-]c1nc2ccccc2nc1-n1cc[n+](Cc2ccccc2)c1)c1ccc(Br)cc1,/,/,97.4,/,/,i,1.04
Cc1cc(C)c2nc(-c3ccccn3)cc(C(=O)NCc3cc(C)n(C)n3)c2c1,-5.0,/,96.3,/,/,i,0.81
COc1cc(OC)c(OC)cc1CN1CCN(c2ccc(F)cc2)CC1,/,/,113.3,/,/,i,0.99
CSCCC(NC(=O)c1ccco1)C(=O)NCc1ccc(F)cc1 (configuration not stated),-4.5,-1.1,98.4,-36.7,138.8,i,0.79
Cc1ccc(C2NC(=O)c3c(sc4c3CCN(C)C4)N2)o1 (configuration not stated),-6.7,-1.6,98.8,/,/,i,1.15
Clc1ccc(Cn2nnc(-c3ccc(CN4CCOCC4)cc3)n2)cc1,6.3,0.4,96.3,/,/,i,0.87
CCOC(=O)c1sc2nc(CSc3ccccc3)nc(N3CCC(C(N)=O)CC3)c2c1C,-14.5,/,101.2,-35.3,27.6,i,0.94
COc1ccc(N/C(N)=N/c2nc(CSc3ccc(C)cc3)cc(=O)[nH]2)cc1,7.6,-1.3,92.0,7.1,145.0,i,0.75
COc1ccc(/C=C/C(=O)O)cc1S(=O)(=O)NCc1ccccc1,/,/,114.7,/,/,i,1.17
CCOC(=O)c1c(C)oc2c1C(=O)c1ccccc1C2=O,-0.1,/,97.4,/,/,i,0.62
Cc1nn(Cc2ccc(C(=O)Nc3ccc(C(=O)OC(C)C)cc3)o2)c(C)c1Cl,11.5,-1.0,100.3,-305.6,67.0,i,0.88
COc1ccc(C=C2C(=O)c3ccccc3C2=O)cc1O,3.8,/,97.8,-41.7,122.3,i,1.06
CC1(C)Cc2c(sc3c2c(=N)n(Cc2ccco2)c(=O)n3CC(=O)Nc2ccccc2)CO1,-4.9,-0.2,93.0,/,/,i,1.04
Cc1nn(-c2nc3ccccc3s2)c(N)c1-c1ccc(Cl)cc1,-2.5,-1.7,/,/,/,i,0.73
CCOc1ccc(-n2nnnc2-c2nc3ccccc3s2)cc1,-2.0,-0.9,96.8,-40.0,88.4,i,1

Screening results deposited in PubChem BioAssay by several laboratories.
